Screening results (PubChem)
VDR inhibitor – Inhibitors of the vitamin D receptor (VDR): qHTS; 400,000 tested, 0.93% active; VDR-SRC2-3 peptide fluorescence polarization, 2 h; Vitamin D3 receptor (Homo sapiens), P11473; Potency, µM, without a hit: max response, negative = inhibition, most hits filed as inhibitors; AID 504847, 2011; active means well fitted inhibition curve with a large enough effect; inconclusive means small, poorly fitted or top-dose-only effect, or another doubt; inactive means no such curve, though single readings can be large or run the other way; further: series mostly up to about 120 µM
Target sequence (P11473 whole entry, looked up): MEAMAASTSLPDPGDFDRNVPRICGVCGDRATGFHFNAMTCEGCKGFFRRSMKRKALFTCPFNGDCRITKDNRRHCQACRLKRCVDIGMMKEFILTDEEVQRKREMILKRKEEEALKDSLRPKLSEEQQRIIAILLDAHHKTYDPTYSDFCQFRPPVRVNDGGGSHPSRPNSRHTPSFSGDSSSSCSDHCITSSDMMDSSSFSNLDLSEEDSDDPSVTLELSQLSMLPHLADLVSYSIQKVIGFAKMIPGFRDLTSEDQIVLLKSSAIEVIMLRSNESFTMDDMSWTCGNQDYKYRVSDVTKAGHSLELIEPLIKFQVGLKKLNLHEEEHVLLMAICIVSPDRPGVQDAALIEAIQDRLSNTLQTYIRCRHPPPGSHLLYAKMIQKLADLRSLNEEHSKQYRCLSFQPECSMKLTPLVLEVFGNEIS
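Signal is fluorescence polarization, reporting how far test compounds block the interaction of VDR with the SRC2-3 coregulator peptide after a 2 h room-temperature incubation.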
* hit, by the source's call; ? = inconclusive; & = joins results of further samples. On the % scale 0 is the no-effect control and ±100 the full control effect; potency means the concentration at half of the fitted maximal effect. These rows are one share of the data (hit frequency here may not be typical).

VDR inhibitor,structure
-5%,O=C(CN1CCCC1)Nc1ccc(OC(F)(F)F)cc1
-8%&4%,O=C(Nc1nnc(S(=O)(=O)N2CCCC2)s1)c1ccccc1Br
-13%,CCc1ccc(NC(=O)C(C)OC(=O)/C=C/c2ccc(O)c(OC)c2)cc1 (centres undefined)
-3%,CCOC(=O)C1=C(C)NC(=O)NC1c1cc(C)sc1C (centres undefined)
-13%,CC(C)N(C(=S)Nc1cccc(C(F)(F)F)c1)C(C)c1ccccn1 (centres undefined)
-9%,Cc1ccc(-n2c(-c3cccc(C)c3)nc3c(cnn3-c3ccccc3)c2=O)cc1
-1%,CCn1cc(CN2CCN(C)C(CCO)C2)c2ccccc21 (centres undefined)
-11%,CC1CCCCN1CCCNC(=O)c1ccc2nc(N3CCCCC3)sc2c1 (centres undefined)
-4%,COc1ccc2[nH]c(=O)c(CN(Cc3cccs3)C(=S)Nc3cccc(C)c3)cc2c1
-10%,CCOc1ccc(C2c3[nH]c4ccccc4c3CCN2Cc2cccn2-c2ncccn2)cc1 (centres undefined)
-9%,COc1ccc(CCNC(=O)c2cc3c(cc2Cl)N2CCCCCC2=NS3(=O)=O)cc1
?,CN(C)NC(=S)NC(=O)C12CC3CC(CC(C3)C1)C2
6%,O=C(O)c1ccc(Cl)c(S(=O)(=O)Nc2ccccc2Cc2ccccc2)c1
3%,CCOC(=O)C1CCN(Cc2nc3ccccc3c(=O)n2-c2ccc(F)cc2)CC1
1%,CCCNC(=O)Cn1nc(-c2ccc(C)c(C)c2)c2cnc3ccc(F)cc3c21
18%,O=C(NCc1ccco1)C1CCCN1C(=O)Nc1ccccc1Cl (centres undefined)
17%,O=C(Nc1ccn(CCCN(CCCn2ccc(NC(=O)OCc3ccccc3)nc2=O)CCc2cc3ccccc3[nH]2)c(=O)n1)OCc1ccccc1
0%,COc1ccc(CC(=O)Oc2ccccc2Cl)cc1S(=O)(=O)N1CCOCC1
4%,O=c1ccnc(SCn2nnc3ccccc3c2=O)[nH]1
16%,CCOC(=O)c1cc(S(=O)(=O)Nc2cc(C)c(Cl)cc2OC)[nH]n1

Reformatted field by field: entries from further up.
> CCn1cc(CN2CCN(C)C(CCO)C2)c2ccccc21 (centres undefined)
  VDR inhibitor = -1%
> CC1CCCCN1CCCNC(=O)c1ccc2nc(N3CCCCC3)sc2c1 (centres undefined)
  VDR inhibitor = -11%

(list continues)
VDR inhibitor,structure
3%,C/C(=N\OC(=O)Nc1ccc(Cl)cc1)c1ccc(F)c(F)c1
-16%,O=c1[nH]c(SCc2ccc(F)cc2)nc2c1cnn2-c1ccc(F)cc1
3%,Nc1ccc(Cc2ccc(N)c(O)c2)cc1O
19%,COc1ccc([N+](=O)[O-])cc1N(CC(=O)NC1CCCC1)S(C)(=O)=O
11%,CC(C)(C)C(=O)Nc1ccc2nc(SCC(=O)N3CCCC3)sc2c1
-31%,Cc1ccc(-c2nnn(CC(=O)NCC3COCCO3)n2)o1 (centres undefined)
-12%,Cc1cccc(C(=O)NC(=S)N2CCN(c3ccc([N+](=O)[O-])cc3)CC2)c1
-7%,Nc1nc(SCc2ccc(F)cc2)ns1
-2%,CCCn1c(NCc2ccc(C)o2)nc2ccccc21
-24%,O=C(c1ccccc1)c1ccc(CN2C(=O)c3ccccc3C2=O)o1
?,CCCn1cc(S(=O)(=O)CC(=O)N2CCc3ccccc32)c2ccccc21
?,CCCCCCN1C(=O)C(O)=C(C(C)=O)C1c1ccc(Cl)cc1 (centres undefined)
10%,COc1ccc(N2CCN(C(=O)C(NC(=O)c3c(F)cccc3F)C(C)C)CC2)cc1 (centres undefined)
1%,Cc1cc(C)c2ccc(C)[n+]([O-])c2c1O
-5%,COc1cccc(N2C(=O)C(Cc3c[nH]c4ccccc34)NC2=S)c1 (centres undefined)
-5%,CN1CCN(CCc2nc3cc(NC(=O)COc4ccc(Cl)cc4)ccc3n2C)CC1
-1%,CN(C)S(=O)(=O)c1ccc(C(=O)Oc2ccccc2)cc1
16%,COc1ccc(NC(=O)Cn2nc(C(=O)O)c3ccccc3c2=O)cc1OC
-13%,O=C1CCN(S(=O)(=O)c2ccccc2)CCN1CCOCc1cccc(F)c1
-14%,CCc1c(C)sc(NC(=O)c2ccco2)c1C(=O)N1CCCCC1

In a second layout: 4 of the compounds above.
SMILES: CCCCCCN1C(=O)C(O)=C(C(C)=O)C1c1ccc(Cl)cc1 (centres undefined)
  VDR inhibitor = ?
SMILES: CCc1c(C)sc(NC(=O)c2ccco2)c1C(=O)N1CCCCC1
  VDR inhibitor = -14%
SMILES: COc1ccc([N+](=O)[O-])cc1N(CC(=O)NC1CCCC1)S(C)(=O)=O
  VDR inhibitor = 19%
SMILES: O=c1[nH]c(SCc2ccc(F)cc2)nc2c1cnn2-c1ccc(F)cc1
  VDR inhibitor = -16%

Next section
VDR inhibitor,structure
1%,CCN1CCC(N(Cc2ccc3c(c2)OCO3)C(=O)Nc2cc(Cl)ccc2C(=O)OC)CC1
5%,C=C(C)Cn1c(C2CC(=O)N(Cc3ccccc3)C2)nc2ccccc21 (centres undefined)
-4%,Cc1ccc(CNC(=O)CCc2c(C)nc3c(-c4ccc(F)cc4)c(C)nn3c2C)cc1
16%,O=C(CP(=O)(CO)CO)c1ccc(Cl)cc1
-4%,COC(=O)[C@H]1C[C@@H]1[C@H](NS(=O)(=O)c1ccccc1)c1ccccc1
7%,Cc1cc2cc(C(c3nnnn3C3CCCC3)N(Cc3cccnc3)Cc3ccco3)c(=O)[nH]c2cc1C (centres undefined)
-5%,O=C(C[C@@H]1C/C=C\C[C@@H](Cc2ccc(F)cc2)C(=O)OC[C@@H](Cc2c[nH]c3ccccc23)NC1=O)NCCO
-10%,OC(CNCCNc1ncccc1C(F)(F)F)COc1ccc(F)cc1 (centres undefined)
-2%,CC1=C(C(=O)Nc2ccc(C)cc2C)C(c2ccccc2[N+](=O)[O-])n2ncc(C(=O)Nc3ccccc3)c2N1 (centres undefined)
-2%,O=C1NCCN(Cc2c(F)cccc2Cl)C1CC(=O)N1CCCO1 (centres undefined)
-20%,COc1ccccc1CCCNC(=O)C1CCC(=O)N(CCc2ccc(Cl)cc2)C1 (centres undefined)
-10%,Cc1ncc(CO)c(/C=N/NC(=O)c2ccc(O)cc2)c1O
-14%,CC12COC3(C(=O)N4CCN(c5ccccn5)CC4)CC1CCC32C (centres undefined)
-14%,CCC(C)[C@H]1COCCS(=O)(=O)N1Cc1ccccc1F (some centres undefined)
0%,COc1ccc(C)cc1NC(=O)CN(c1ccc(C)cc1)S(C)(=O)=O
-13%,CCC(C(=O)O)P(=O)(c1ccc(Cl)cc1)c1ccc(Cl)cc1 (centres undefined)
-4%,CC1=C(C(=O)OC2CCCCC2)C(c2cccnc2)n2ncnc2N1 (centres undefined)
-15%,COc1ccc(N2CCN(C(=O)Cc3csc(NC(=O)Nc4ccccc4OC)n3)CC2)cc1
-9%,CCOc1ccc(CCNC(=O)c2cccc(C#N)c2)cc1OCC
2%,CCN(Cc1cc(=O)[nH]c2ccccc12)C(=O)C(C)C
-3%,COc1cc(/C=C2/N=C(c3ccccc3)OC2=O)c(F)cc1OCc1ccccc1
-9%,NCc1cn(Cc2ccccc2)nc1-c1ccccc1
5%,CSc1cccc(N2C(=O)N(CC(=O)NCc3ccccc3Cl)c3ccccc3S2(=O)=O)c1
3%,CCSc1nnc(NC(=O)NCC(F)(F)F)s1
-2%,COc1ccc(NS(=O)(=O)c2cccc(C(=O)O)c2)cc1S(=O)(=O)N1CCCCC1
-6%,COc1ccccc1N1CCN(C2CCN(C(=O)c3cccc(F)c3)CC2)CC1
-9%,Cc1ccc(C(=O)Nc2cccnc2)cc1[N+](=O)[O-]
-14%,CN(C)c1ccc(NC(=O)CN2C3CCCC2CC(NC(=O)c2ccccc2)C3)cc1 (centres undefined)
-15%,Cc1cc(C)n2nc(C(=O)OCC(=O)c3ccccc3Cl)nc2n1
-5%,O=P(COCCOCCOCP(=O)(c1ccccc1)c1ccccc1)(c1ccccc1)c1ccccc1
-6%,O=C(Nc1cccnc1)c1cnn2cccnc12
0%,O=C(c1ccc2c(c1)OCCO2)N1CCN(S(=O)(=O)c2c(F)cccc2F)CC1
1%,O=C(Nc1ccccc1Cl)Nc1ccnn1C1CCN(C(=O)CCN2CCCO2)CC1
8%,Cn1c(SCc2ccccc2Cl)nc2c1c(=O)[nH]c(=O)n2C
3%,COc1ccccc1C(C)NC(=O)c1ccc(C)o1 (centres undefined)
-9%,CN(C(=O)CN1C(=O)NC2(CCc3ccccc32)C1=O)C1CCCCC1 (centres undefined)
6%,N/N=C(\Cc1cscn1)c1ccc(O)cc1O
11%,C[C@H](O)[C@@H]1C(=O)N2CCc3ccc(N4CCN(C)CC4)cc3[C@@H]2C[C@@H]1N(C)C(=O)Nc1cc(Cl)cc(Cl)c1
1%,CCN1CCN(c2ccc(Nc3ccnc4ccccc34)cc2)CC1
2%,COc1ccc(-n2c(=O)c3c(c4cc(OC)ccc4n3C)n(C)c2=O)cc1
22%,CC(C)=C1C2CC2C2C(C(=O)O)C12 (centres undefined)
10%,O=C(Nc1nnc(S(=O)(=O)N2CCc3ccccc32)s1)c1ccccc1Cl
?,Cc1nn(Cc2ccc([N+](=O)[O-])cc2)c(=O)n1-c1cccc(Cl)c1
-4%,COc1ccc(NC(=S)NC2CC3CCC2C3)c(OC)c1 (centres undefined)
26%,CC(CCc1ccco1)NC(=O)Cn1ncc2c(=O)oc3ccccc3c21 (centres undefined)
-24%,O=C1CC(N(CCc2ccccc2)C(=S)Nc2ccccc2)C(=O)N1c1ccc(F)cc1 (centres undefined)
-6%,Cc1csc2c(N3CCN(C(=S)Nc4ccc(F)cc4F)CC3)ncnc12
5%,CCN(Cc1ccncc1)Cc1nc(-c2ccc(C(=O)OC)cc2)no1
-14%,O=C1C=C(c2ccc3c(c2)OCCO3)C[C@@H](c2ccc(F)cc2)C1
12%,Cc1cccc(C)c1NC(=O)COc1ccc2c(C)c(Cc3ccccc3)c(=O)oc2c1C
-19%,COc1cccc(NC(=O)N2CCCC2C(=O)Nc2cc(C)ccc2OC)c1 (centres undefined)
-7%,COc1ccc(NS(=O)(=O)c2cc(C(=O)Nc3ccccc3C(=O)O)ccc2C)cc1
-4%,CNC(=S)NNC(=O)c1cccs1
0%,COc1ccc2c(c1)c(-c1csc(N)n1)c(C)n2C
-16%,CCN(CC)c1ccc(S(=O)(=O)N2CCOCC2)cc1NC(=O)COC(=O)/C=C/c1ccccc1
-5%,CCOC(=O)C1CCCN(CCC(=O)Nc2cc(C)ccc2C)C1 (centres undefined)
-14%,Cc1ccc(N2CC(C(=O)NCCC3=CCCCC3)CC2=O)cc1 (centres undefined)
-4%,O=C1c2ccccc2C(=O)C1C(=O)C1CC1
1%,N#CCCN(CCC#N)C(=O)c1ccc(Cl)cc1
10%,CCOC(=O)[C@H]1[C@H]2COc3ccc(Br)cc3[C@@H]2N2C(=O)c3ccc(F)cc3NC(=O)[C@@]12C

The results go on.
VDR inhibitor,structure
0%,C[C@]12CC[C@H](O)CC1=CCC1C2CC[C@@]2(C)C1CC[C@@H]2NC(=O)[C@@H](N)Cc1ccccc1 (some centres undefined)
-10%,C[C@@H]1CN(Cc2nc(-c3cccs3)no2)C[C@H](C)O1
-11%,O=c1[nH]nc(Cc2ccc(Cl)cc2Cl)c2ccccc12
-2%,CC(=O)c1ccc(S(=O)(=O)N2CCn3cccc3C2C)cc1 (centres undefined)
-4%,COc1ccc(/C(C)=N/NC(=O)CNC(=O)c2cccnc2)c(OC)c1
4%,COc1cc(NC(=O)CSCc2cnn(-c3ccccc3)c2-n2cccc2)cc(OC)c1
-2%,Cc1cc(=O)oc2cc(OCC(=O)NC3(C#N)CCCCC3)c(Cl)cc12
9%,CCOC(=O)C1=CN(Cc2ccco2)S(=O)(=O)N(CC)C1c1cccc(OC)c1 (centres undefined)
?,O=C(O)CCCCCN1C(=O)/C(=C/c2ccncc2)SC1=S
-18%,COc1ccc(-c2cc(C(=O)Nc3ccc(S(=O)(=O)Nc4onc(C)c4C)cc3)c3ccccc3n2)cc1
-26%,CCNC(=O)COC(=O)CNC(=O)c1cc(Cl)cc([N+](=O)[O-])c1
-4%,Cc1ccc(S(=O)(=O)N2CCC(C(=O)NCCN3CCCCCC3)CC2)cc1
-7%,CC(C)(C)c1csc(CS(=O)(=O)c2ccccn2)n1

Structures from the list above with a tert-butyl group, in the order listed:
VDR inhibitor,structure
11%,CC(C)(C)C(=O)Nc1ccc2nc(SCC(=O)N3CCCC3)sc2c1
-7%,CC(C)(C)c1csc(CS(=O)(=O)c2ccccn2)n1
